Compound activity: PubChem BioAssay, Fisher Drug Discovery Resource Center
NPYLR7 ag: mosquito NPYLR7 agonism; HEK293T NPYLR7/Galpha15, GCaMP6s calcium fluorescence; activation, % at 10 µM; 270,000 compounds, 0.15% hits; in the data active = activation above about 40%;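 note: 0% = vehicle and 100% = reference agonist at the receptor; some compounds past the cut are filed as inactive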
NPYLR7 ag max-min: second read-out of NPYLR7 ag, no call of its own (marks repeat the call); activation, %; measured here: Max-Min RFU normalised activation; some inactives read as strong as hits;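 span of the calcium signal over five minutes; 0% = vehicle and 100% = native peptide agonist; compound fluorescence can raise it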
* marks the source's active call; other numbers are inactive results; & = joins results of further samples. An excerpt; count on the stated rates, not on these rows.

SMILES,NPYLR7 ag,NPYLR7 ag max-min
Cc1ccc(-n2nnnc2CNC(=O)c2cccc(C(F)(F)F)c2)cc1C,2,-1
O=C(NC1CCCCC1)N1CCN(c2ccc3nncn3n2)CC1,3,9
CC1CCCN(Cc2ccc(C(=O)Nc3ncnn3C(C)C)cc2)C1 (stereo not drawn),0,-7
Cc1cc(C)cc(-c2ccc(-n3cncc3C(=O)NCC3COC(C)(C)O3)cc2)c1 (stereo not drawn),6,-2
COc1ccc(-n2nnnc2CNC(=O)C(c2ccccc2)c2ccccc2)cc1,8,3
Cc1ccc(C)c(NC(=O)CSc2nnc(CNC(=O)c3ccccc3C(F)(F)F)n2-c2cccc(Cl)c2)c1,-7,1
CN1CC(=O)N2CCN(C(=O)NC34CC5CC(CC(C5)C3)C4)CC2C1=O (stereo not drawn),2,-1
CCN1CCN(C(=O)/C(=C/c2cccc(F)c2)n2nnnc2C)CC1,11,9
O=C(c1ccccc1)N1CCN(C(=O)c2ccc3ccccc3n2)CC1,0,-5
CCCC(C)NC(=O)CN1CCCC1C(=O)N(C)C (stereo not drawn),1,-2
Fc1ccccc1-c1noc2nc(OCc3ccccn3)ccc12,2,2
CC(=O)Oc1c(-c2ccc(NC(=O)c3ccc(F)cc3)cc2)c(CC(C)C)nn1-c1cccc(C)c1,5,7
Cc1c(C(=O)NCc2ccc(C#N)cc2)sc(=O)n1CC(=O)N(C)C,5,2
Cc1ccc(C2=NN3C(C2)c2cc(Cl)ccc2OC3c2ccncc2)cc1 (stereo not drawn),4,6
CCC(C)(N)c1nccs1 (stereo not drawn),-10,-11
O=C(CCC1CCCC1)N1CCC(c2nc(-c3ccncc3)no2)CC1,17,12
Cc1ccc(-c2cc(CC(=O)c3c(O)cc(O)cc3O)[nH]n2)cc1,3,5
CCc1nc2ccc(C(=O)NCCc3ccccn3)cn2c1N(C)Cc1nccs1,-6,-7
CN(CC(=O)OCc1ccccn1)S(=O)(=O)c1ccc(F)cc1,13,9
CS(=O)(=O)c1ccc(C(=O)N2CCCc3c(F)cc(F)cc32)cc1,-2,-2
O=P(O)(Nc1ccccc1)C1=C(C2=C(Nc3ccccc3)CCC2)CCC1,1,-1
CN(CCOc1ccc(F)cc1)C(=O)c1cc(Cl)c2c(c1)OCCO2,-1,-2
CNc1cncc(-c2ccc3c(c2)CCO3)n1,-4,-4
CN(CCO)c1ncnc2scc(-c3ccc(Br)cc3)c12,8,8
Cc1ccc(-c2nc(Cn3c(C#N)nc4ccccc43)cs2)cc1,3,2

Brought forward from above: 4 compounds, then new ones.
SMILES,NPYLR7 ag,NPYLR7 ag max-min
CN(CCOc1ccc(F)cc1)C(=O)c1cc(Cl)c2c(c1)OCCO2,-1,-2
CNc1cncc(-c2ccc3c(c2)CCO3)n1,-4,-4
CN(CCO)c1ncnc2scc(-c3ccc(Br)cc3)c12,8,8
Cc1ccc(-c2nc(Cn3c(C#N)nc4ccccc43)cs2)cc1,3,2
CCOC(=O)C(=O)N1CCc2ccccc2C1c1ccc(C)cc1 (stereo not drawn),18,13
CN(C)S(=O)(=O)c1cccc(CSc2nnc(C(F)(F)F)n2C)c1,5,3
FC(F)(F)c1ccc(Cl)c(-n2c(C3(c4ccc(Cl)cc4)CCC3)n[nH]c2=S)c1,-7,-9
O=C(CNC(=O)c1cccs1)NC1CCCC1,1,-1
Cc1cc(C(=O)CSc2nnc(-c3ccco3)n2C)c(C)n1C,6,1
Cc1nc2nc3ccn(-n4cnnc4)c(=O)c3c(-c3ccccc3)n2n1,-3,-13
COc1ccc(-c2ccc(SCC(N)=O)nn2)cc1OC,-2,-2
COc1ccc(OC)c(C2C(C#N)C(=N)SC(=N)C2C#N)c1 (stereo not drawn),8,2
COCC(O)CN(Cc1c(C)nn(-c2ccccc2)c1Oc1cccc(F)c1)CC1CCCO1 (stereo not drawn),-6,-7
CC(C)Oc1ccc(C2CC(=O)N(c3cccc(Br)c3)C2=O)cc1 (stereo not drawn),5,7
CCC(C)NC(=O)c1nn(-c2ccc(OC)cc2)c(=O)n(Cc2ccccc2F)c1=O (stereo not drawn),13,8
C=CCNC(=O)C(NC(=O)c1cccs1)C1CCN(C(=O)Nc2cccc(Cl)c2)CC1 (stereo not drawn),-11,-3
CN(C(=O)c1cccc(NS(=O)(=O)c2ccc3[nH]cc(C(=O)O)c(=O)c3c2)c1)c1ccccc1,-9,-17
O=C(O)Cc1[nH]nc2ccccc12,3,7
COc1ccccc1CCNC(=O)C(C1CCCC1)N1CCN(C(=O)Nc2cccc(F)c2)CC1 (stereo not drawn),-7,-4
CCOC(=O)c1c(NC(=O)Cc2cccs2)sc2c1CCC(C(C)(C)CC)C2 (stereo not drawn),8,5
Cc1ccnc(SCc2cc(=O)c(OC(=O)c3cccc(C(F)(F)F)c3)co2)n1,-13,-5
COCC(C)NC(=O)c1cccc(Oc2cccc(C(F)(F)F)c2)c1 (stereo not drawn),16,9
S=c1nc(-c2ccccc2)[nH]n1CN1CCc2ccccc2C1,10,14
O=C(/C=C/c1nc2ccccc2s1)NC1CCC(O)CC1 (stereo not drawn),-3,-4
O=C1NC(=O)C2C1C(c1ccccc1Cl)NN2Cc1ccccc1 (stereo not drawn),-12,-16
CCCSCC(=O)Nc1cnc2n1CCCC2,2,1
CN(CCn1ccc2ccccc21)C(=O)c1ccc(=O)n(C)c1,7,4
CC(c1ccccc1)N(Cc1cccc(Oc2ccccc2)c1)Cc1nc(C(=O)NC2CC2)co1 (stereo not drawn),20,29
OCCn1c(SCCOc2ccccc2)nc2ccccc21,-16,-18

Compound profiles, as listed above.
Shown for `OCCn1c(SCCOc2ccccc2)nc2ccccc21` = NPYLR7 ag = -16; NPYLR7 ag max-min = -18
Shown for `COc1ccc(-c2ccc(SCC(N)=O)nn2)cc1OC` = NPYLR7 ag = -2; NPYLR7 ag max-min = -2

The list continues:
SMILES,NPYLR7 ag,NPYLR7 ag max-min
CC(=O)c1cc(C(N)=O)n(C)c1,3,1
COc1cccc(Cc2nsc(Oc3ccc(C(=O)N4CCN(Cc5ccccc5)CC4)cc3OC)n2)c1,35,33
CCC1(c2ccc(F)cc2)NC(=O)N(CC(=O)N(C2CC2)C2CCS(=O)(=O)C2)C1=O (stereo not drawn),-10,-12
CCCCn1c(=NC(C)=O)c(C#N)cc2c(=O)n3cccc(C)c3nc21,16,24
C=CCCC(=O)N1CCc2cc(OC)c(OC)cc2C1c1c(F)cccc1Cl (stereo not drawn),-1,1
COc1ccc(-c2cc3c(=O)n(Cc4nc(-c5ccc(OC(C)C)cc5)oc4C)ccn3n2)cc1,4,6
Clc1cccc(-c2nccn2-c2ccc(Oc3nn[nH]n3)cc2)c1,29,13
CCN(CC)S(=O)(=O)c1c(C)nn(C(=O)CCc2ccccc2)c1C,0,8
CCNC(=O)NC(Cc1ccccc1)C(=O)Nc1nnc(-c2ccc(Br)cc2)s1 (stereo not drawn),11,3
Cc1ccc(-c2csc(-n3[nH]c(C)c(N=Nc4ccccc4C(=O)O)c3=O)n2)cc1,-4,-2
O=C1OCCC1N1CCN(Cc2ccc(Br)s2)CC1 (stereo not drawn),9,5
Cc1ccc(C(=O)N2CCN(Cc3ccc(-c4noc(-c5cccnc5)n4)cc3)CC2)c(Cl)n1,5,9
Cc1cc(NC(=O)CN(C)Cc2ccccc2C)n(-c2ccccc2C)n1,19,2
OCCC1CN(C2CCN(CCc3ccccc3)CC2)CCN1C1CCCC1 (stereo not drawn),-7,-9
CC(C)(C)n1ncc2c(=O)[nH]c(N3CCC(C(=O)N4CCCCCC4)CC3)nc21,-1,-5
CC(C)(C)c1ccc(C=NOCc2ccc([N+](=O)[O-])cc2)cc1,0,-1
CCOC(=O)c1nn(-c2ccc(C)cc2)c(=O)cc1N1CCN(c2ccc(OC)cc2)CC1,9,5
NCCc1ccc(CN2C[C@@H]3C4CCC(CC4)[C@@H]3C2)cc1,10,8
C=CC[C@@H]1CC=C[C@@H](C)N1Cc1nc(-c2ccc(C)o2)oc1C,10,7
O=C(CN1CCCOC1=O)NCC1(O)CCCCCC1,7,6
CCN1CCN(c2cc(C(=O)NC3CC3)c3ccccc3n2)CC1,9,6
CN(C1CCCCC1)S(=O)(=O)c1ccc(C(=O)Nc2ncnc3sccc23)cc1,-7,-11
CS(=O)(=O)c1cccc(NC(=O)CSCc2ccccc2)c1,-10,-11
CCC(COC)NC(=O)c1cncn1-c1cccc(-c2cccc(OC(F)(F)F)c2)c1 (stereo not drawn),-6,-13
CC(NC(=O)c1cccc(C#CC(C)(C)O)c1)C1=CCCCC1 (stereo not drawn),10,6
CCC(CC)NC(=O)c1cc(Cl)ccc1[N+](=O)[O-],-5,-7
Cc1ccsc1C(Cc1ccccc1)NC(=O)Cc1cnn(C)c1 (stereo not drawn),-4,-7
CCOC(=O)c1c(C)[nH]c(C)c1C(=O)COC(=O)c1sc2nc(C)[nH]c(=O)c2c1C,1,1
CCN(CC)C(=O)N1CCCC(C(=O)Nc2ccc(S(=O)(=O)C(F)F)cc2)C1 (stereo not drawn),12,6
CC1CCc2c(sc(NC(=O)c3ccn(C)n3)c2C(N)=O)C1 (stereo not drawn),7,-2
CS(=O)(=O)c1ccc(Br)c(S(=O)(=O)OCC(F)(F)F)c1,0,10
CC(=O)c1ccc(NC(=O)N(C)c2c(C)nc3ccc(C(=O)NC4CCN(Cc5ccccc5)CC4)cn23)cc1,20,19
CC1c2ccccc2CN1CC1=NCCN1 (stereo not drawn),-12,-16
CC1CN(C(=O)c2ccco2)C(=Nc2cccc(S(=O)(=O)N(C)C)c2)S1 (stereo not drawn),-4,-4
Cc1nc2c(c(N(C)C)n1)CCN(C(=O)C(C)n1cc(Cl)cn1)C2 (stereo not drawn),6,5
CCc1ccc(S(=O)(=O)N2CCN(c3ccc(-n4nc(C)cc4C)nn3)CC2)cc1,-6,-11
Cc1ccc2nc(N3CCCCC3)c(C=C3SC(=S)N(C4CCCCC4)C3=O)c(=O)n2c1,0,23
C=CCNC(=O)C(C#N)=Cc1cccc(Br)c1,-1,-1
CS(=O)(=O)N1CCC(C(=O)N2CCN(c3nc4ccccc4s3)CC2)CC1,-2,-3
CC(C)(C)c1nnc(CN2CCCC(c3ccn[nH]3)C2)o1 (stereo not drawn),12,5
CCNC(=O)c1ccc(-c2ccc3ncccc3c2)nc1,2,-3
Cc1nc(N2CCCCC2C)c2c3c(sc2n1)CCC3 (stereo not drawn),-13,-20
O=C(NCCNCC(O)COc1ccc(O)cc1)N1CCOCC1 (stereo not drawn),-3&2,-7&5
Cc1ccc(S(=O)(=O)NCCc2nnc3ccc(NCc4ccc(Cl)cc4)nn23)cc1,1,-10
C=CCCC(O)CN(CCC)CC(=O)N1CCc2sccc2C1COc1cccc(OC)c1 (stereo not drawn),8,6
CCC(=O)N1CCC1(C)C(=O)Nc1cccc2c1CCCC2 (stereo not drawn),4,3
Cc1ccc(NC(=O)Cn2ncn3nccc3c2=O)c2cccnc12,-5,-6
COc1ccc(C=Nc2cccc(-c3cnc[nH]3)c2)cc1,-9,-18
CN(Cc1ccon1)C(=O)CC1C(=O)NCCN1Cc1cccc(F)c1F (stereo not drawn),-7,-6
CC(C)NC(=O)NCCc1ccc(NS(=O)(=O)c2ccc3c(c2)CN(C(=O)C(F)(F)F)CC3)cc1,-4,-10

(continued)
SMILES,NPYLR7 ag,NPYLR7 ag max-min
NC(=O)CN1C(=O)C2C3C=CC(C3)C2C1=O (stereo not drawn),1,8
Cc1cccc(=O)n1CCCNC(=O)c1cccc(CC2CCNCC2)c1,4,-3
COc1ccc(Cl)c2sc(N(Cc3cccnc3)C(=O)CCOc3ccccc3)nc12,7,5
COC(=O)N1CCC(=NOCc2ccccc2)CC1,-2,-2
O=C(O)c1cc(-c2ccco2)nn1-c1ccccc1Cl,12,9
O=C(CSc1ccc(C(F)(F)F)cn1)N(CCCO)CC1CC1(c1ccccc1)c1ccccc1 (stereo not drawn),-21,-30
CCOC(=O)[C@@H]1[C@@H](OC)C(=O)N(C(C)C)C12CCN(C(=O)c1ccco1)CC2,25,22
O=C(C(=Cc1ccccc1)c1ccccc1)N1CCc2ccccc2C1,-6,-10
CC(C)n1cc(C(=O)N2CCN(C(=O)COc3ccccc3)CC2)c2nn(-c3ccccc3)c(=O)c-2c1,-4,-7
Cc1cccnc1C(NC(=O)C1CCN(Cc2cccs2)CC1)c1ccccc1 (stereo not drawn),11,9
COc1ccc(NC(=O)N2CCc3cc(OC)c(OC)cc3C2c2ccccc2)c(OC)c1 (stereo not drawn),17,6
